Source: PubChem BioAssay (Broad Institute)
Vaccinia inh = blocks a specific stage of Vaccinia orthopoxvirus infection, primary screen, cell-based, single point; AID 1053133, 2014; Vaccinia-infected cells, mCherry/Venus stage reporter fluorescence; active compounds read low; some inactives read as strong as hits; activity change (mCherry), % (test concentration not listed); 0.01% of 89,000 active;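 active = mCherry past -33% and 40 or more points under the early reporter, replicates agreeing; inconclusive = past -33% without that gap or agreement; tested in A549 cells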;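 note: scaled between vehicle wells and reference inhibitor wells; 23 nL library stock went into each well; one replicate is shown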
Vaccinia inh Venus = also measured in Vaccinia inh; calls as there; activity change (Venus), %; measured here: Venus reporter, other viral stage;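 negative = less Venus signal; first of two replicates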
Active calls of the source: *; ? = inconclusive; / = not tested or not shown.

The line under a structure holds: Vaccinia inh, Vaccinia inh Venus
O=C(C1CCOCC1)N1CC2(C1)[C@@H](c1ccccc1)[C@H](CO)N2Cc1ccc(Cl)cc1
→ 7, 10
C[C@H]1CN([C@@H](C)CO)C(=O)c2cccc(NC(=O)Nc3ccc(F)cc3)c2O[C@@H]1CN(C)C(=O)Nc1ccc(F)cc1
→ 6, 10
C[C@@H]1CN([C@H](C)CO)S(=O)(=O)c2ccc(C3=CCCCC3)cc2O[C@@H]1CN(C)C(=O)C1CCOCC1
→ -13, -6
CCC(=O)Nc1ccc2c(c1)C(=O)N(C)[C@@H]1CC[C@H](CC(=O)NCCc3ccncc3)O[C@@H]1CO2
→ 13, 6
COc1ccc(C#Cc2ccc3c(c2)O[C@@H](CN(C)C(=O)CN2CCOCC2)[C@@H](C)CN([C@@H](C)CO)S3(=O)=O)cc1
→ ?, /
COc1ccc(S(=O)(=O)Nc2ccc3c(c2)C(=O)N([C@@H](C)CO)C[C@H](C)[C@@H](CN(C)Cc2ccc(C(=O)O)cc2)O3)cc1
→ 20, 17
CC(C)C#Cc1ccc2c(c1)O[C@@H](CN(C)CC1CC1)[C@@H](C)CN([C@@H](C)CO)S2(=O)=O
→ -32, -37
Cc1noc(C)c1S(=O)(=O)Nc1ccc2c(c1)C(=O)N([C@@H](C)CO)C[C@H](C)[C@H](CN(C)C(=O)Cc1ccccc1)OCCCC[C@H](C)O2
→ -8, -12
CCC(=O)N(C)C[C@H]1Oc2cc(C3=CCCC3)ccc2S(=O)(=O)N([C@H](C)CO)C[C@@H]1C
→ -1, 2
CCCN1C[C@H](C)[C@H](OC)CN(C)C(=O)c2cc(NC(=O)C3CCOCC3)ccc2OC[C@@H]1C
→ 10, 14
CO[C@H]1CN(C)C(=O)c2ccc(NC(=O)NC(C)C)cc2OC[C@H](C)N(Cc2ccccc2)C[C@@H]1C
→ -18, -12
C[C@H](CO)N1C[C@H](C)[C@@H](CN(C)Cc2ccncc2)OCCCC[C@H](C)Oc2ccc(NS(=O)(=O)c3cn(C)cn3)cc2C1=O
→ 15, -1
Cc1ccc(NC(=O)C[C@H]2CC[C@H]3[C@@H](COc4ccc(NC(=O)C(C)C)cc4C(=O)N3C)O2)cc1
→ -2, -1
C[C@H]1CCCCO[C@H](CN(C)C(=O)NC2CCCCC2)[C@@H](C)CN([C@@H](C)CO)C(=O)c2cc(NC(=O)NC3CCCCC3)ccc2O1
→ ?, /
Cc1ccccc1S(=O)(=O)N1C[C@@H](O)COC[C@@H]2O[C@@H](CC(=O)O)CC[C@H]21
→ 0, -6
C[C@@H]1CN([C@H](C)CO)C(=O)c2c(c3ccccc3n2C)-c2ccccc2CO[C@H]1CN(C)C(=O)CCN(C)C
→ -24, -20
CO[C@@H]1CN(C)C(=O)c2ccc(NC(=O)C3CC3)cc2OC[C@@H](C)N(Cc2cc(F)ccc2F)C[C@@H]1C
→ -8, -4
CC(C)NC(=O)Nc1ccc2c(c1)C(=O)N([C@@H](C)CO)C[C@H](C)[C@@H](CN(C)Cc1ccc(C(=O)Nc3ccccc3N)cc1)O2
→ 0, -11
Cc1noc(C)c1NC(=O)N[C@H]1CC[C@H](CC(=O)Nc2ccc(-c3ccccc3)cc2)O[C@@H]1CO
→ -8, -9
CCC(=O)N1C[C@H](C)[C@@H](OC)CN(C)C(=O)c2ccc(NC(=O)COC)cc2OC[C@H]1C
→ 5, 6
COCC(=O)N1C[C@H](C)[C@H](OC)CN(C)C(=O)c2cc(NC(=O)c3cnccn3)ccc2OC[C@H]1C
→ 2, 3
O=C(NCc1ccncn1)[C@@H]1[C@@H](CO)[C@@H]2Cn3c(ccc(-c4cccc(F)c4)c3=O)[C@@H]2N1CC1CC1
→ -4, -1
O=C(C[C@H]1CC[C@@H]2[C@H](COC[C@@H](O)CN2C(=O)Nc2ccccc2)O1)NCc1ccncn1
→ 2, 14
CN1C(=O)c2cc(NC(=O)C3CC3)ccc2OC[C@H]2O[C@H](CC(=O)NCCN3CCCC3)CC[C@@H]21
→ 2, 7
Cc1ccc(S(=O)(=O)Nc2ccc3c(c2)CC(=O)N([C@H](C)CO)C[C@H](C)[C@H](CN(C)CC2CC2)O3)cc1
→ -11, -7
COc1ccc(S(=O)(=O)N(C)C[C@@H]2Oc3c(NC(=O)c4ccncc4)cccc3C(=O)N([C@H](C)CO)C[C@@H]2C)cc1
→ 24, 15
C[C@@H]1CN([C@H](C)CO)C(=O)Cc2cc(NC(=O)Nc3cccc4ccccc34)ccc2O[C@H]1CN(C)C(=O)Nc1ccc(C(F)(F)F)cc1
→ -6, 4
COc1ccc(CN2C[C@H](C)[C@@H](OC)CN(C)C(=O)c3ccc(NC(=O)c4nc5ccccc5s4)cc3OC[C@@H]2C)cc1
→ -33, -25
COc1ccc(S(=O)(=O)N(C)C[C@@H]2OCCCC[C@H](C)Oc3ccc(NC(=O)C4CCCCC4)cc3C(=O)N([C@H](C)CO)C[C@H]2C)cc1
→ -20, -7
CCCNC(=O)N1CC(=O)N2[C@H](CO)[C@H](c3ccc(C#Cc4cccc(OC)c4)cc3)[C@@H]2C1
→ -11, -5

Brought forward from above: seven entries, followed by the next part.
The line under a structure holds: Vaccinia inh, Vaccinia inh Venus
CN1C(=O)c2cc(NC(=O)C3CC3)ccc2OC[C@H]2O[C@H](CC(=O)NCCN3CCCC3)CC[C@@H]21
→ 2, 7
Cc1ccc(S(=O)(=O)Nc2ccc3c(c2)CC(=O)N([C@H](C)CO)C[C@H](C)[C@H](CN(C)CC2CC2)O3)cc1
→ -11, -7
COc1ccc(S(=O)(=O)N(C)C[C@@H]2Oc3c(NC(=O)c4ccncc4)cccc3C(=O)N([C@H](C)CO)C[C@@H]2C)cc1
→ 24, 15
C[C@@H]1CN([C@H](C)CO)C(=O)Cc2cc(NC(=O)Nc3cccc4ccccc34)ccc2O[C@H]1CN(C)C(=O)Nc1ccc(C(F)(F)F)cc1
→ -6, 4
COc1ccc(CN2C[C@H](C)[C@@H](OC)CN(C)C(=O)c3ccc(NC(=O)c4nc5ccccc5s4)cc3OC[C@@H]2C)cc1
→ -33, -25
COc1ccc(S(=O)(=O)N(C)C[C@@H]2OCCCC[C@H](C)Oc3ccc(NC(=O)C4CCCCC4)cc3C(=O)N([C@H](C)CO)C[C@H]2C)cc1
→ -20, -7
CCCNC(=O)N1CC(=O)N2[C@H](CO)[C@H](c3ccc(C#Cc4cccc(OC)c4)cc3)[C@@H]2C1
→ -11, -5
C[C@@H]1CCCCO[C@@H](CN(C)S(=O)(=O)c2cccs2)[C@H](C)CN([C@H](C)CO)C(=O)c2cc(NC(=O)Nc3ccc(C(F)(F)F)cc3)ccc2O1
→ 10, 4
COc1ccc(CN(C)C[C@H]2Oc3ccc(NS(=O)(=O)c4cn(C)cn4)cc3C(=O)N([C@@H](C)CO)C[C@@H]2C)cc1
→ 13, 4
CO[C@@H]1CN(C)C(=O)c2ccc(NC(C)=O)cc2OC[C@@H](C)N(C(=O)c2ccccn2)C[C@@H]1C
→ 9, -1
CCCNC(=O)N(C)C[C@@H]1Oc2ncc(-c3ccc(C(=O)N(C)C)cc3)cc2C(=O)N([C@H](C)CO)C[C@@H]1C
→ 7, 0
CC(=O)N1CC(=O)N2[C@@H](CO)[C@H](c3ccc(-c4ccc(C)cc4)cc3)[C@@H]2C1
→ -3, -19
O=C(c1ccccc1F)N1C[C@@H]2[C@H](c3ccccc31)[C@H](CO)N2C(=O)c1ccncc1
→ 8, 4
C[C@H](CO)N1C[C@H](C)[C@@H](CN(C)S(=O)(=O)c2cccs2)Oc2ccc(NC(=O)Cc3cn(C)c4ccccc34)cc2CC1=O
→ -25, -7
CCCC#Cc1ccc([C@@H]2[C@H](C#N)N(S(=O)(=O)c3cccc(F)c3)[C@H]2CO)cc1
→ 9, 7
O=C(C[C@H]1C[C@H]2c3cc(NC(=O)CC4CC4)ccc3O[C@H]2[C@@H](CO)O1)NCC1CC1
→ 20, 3
COc1ccccc1C#Cc1ccc2c(c1)O[C@H](CN(C)C(C)=O)[C@H](C)CN([C@@H](C)CO)S2(=O)=O
→ -21, -18
N#C[C@@H]1[C@H](c2ccc(C#Cc3ccc(F)cc3)cc2)[C@@H](CO)N1C(=O)C1CC1
→ -30, -12
C/C=C/c1ccc([C@H]2[C@@H](CO)N(C(=O)c3ccccn3)C23CN(CCC(F)(F)F)C3)cc1
→ 11, 12
CN(C)CC(=O)N1[C@@H]2c3ccc(C4=CCCCC4)c(=O)n3C[C@@H]2[C@@H](CO)[C@@H]1C(=O)Nc1nccs1
→ 7, -2
C[C@@H]1CN([C@@H](C)CO)S(=O)(=O)c2ccc(-c3cccc(C#N)c3)cc2O[C@H]1CN(C)C(=O)C1CC1
→ 15, 14
C[C@@H]1CN([C@@H](C)CO)C(=O)c2cc(NC(=O)Nc3ccc4c(c3)OCO4)ccc2O[C@H]1CN(C)S(=O)(=O)c1ccccc1
→ 9, 6
CO[C@@H]1CC[C@@H]2CCOc3c(C#N)cccc3C(=O)N(C)[C@H](C)C(=O)N(C)C[C@H]1O2
→ 6, 3
C[C@@H]1CN([C@@H](C)CO)C(=O)c2c(c3ccccc3n2C)-c2ccccc2CO[C@H]1CN(C)Cc1ccc(Oc2ccccc2)cc1
→ ?, /
CC(C)CC#Cc1ccc2c(c1)O[C@H](CN(C)Cc1cncnc1)[C@H](C)CN([C@H](C)CO)S2(=O)=O
→ ?, /
C[C@@H]1CN([C@H](C)CO)C(=O)c2cccc(N(C)C)c2O[C@H]1CN(C)S(=O)(=O)c1ccc(F)cc1
→ -11, -14
O=C(C[C@@H]1CC[C@@H]2[C@H](COC[C@H](O)CN2Cc2ccncc2)O1)NCc1ccccc1Cl
→ 16, 4
O=C(C[C@H]1C=C[C@H](NC(=O)C2CCOCC2)[C@@H](CO)O1)NCC1CC1
→ 8, 14
C[C@@H]1CCCCO[C@H](CN(C)S(C)(=O)=O)[C@H](C)CN([C@@H](C)CO)C(=O)c2cc(NC(=O)c3ccncc3)ccc2O1
→ 31, 12
CC(C)C#Cc1ccc([C@H]2[C@@H](CO)N3C(=O)CN(S(=O)(=O)c4ccccc4)C[C@H]23)cc1
→ ?, /
CNC(=O)C[C@H]1CC[C@H]2[C@@H](COc3ccc(NC(=O)c4ccc(F)c(F)c4)cc3C(=O)N2C)O1
→ 2, 0
O=C(C[C@H]1CC[C@H](NC(=O)Nc2ccc(C(F)(F)F)cc2)[C@@H](CO)O1)NCc1ccccn1
→ -18, 2
C[C@@H](NC(=O)[C@@H]1[C@@H](CO)[C@@H]2Cn3c(cccc3=O)[C@H]1N2Cc1cccnc1)c1ccccc1
→ 5, -2
CCCN1[C@H](C(=O)N2CCOCC2)[C@@H](CO)[C@@H]2Cn3c(ccc(/C=C/c4ccccc4)c3=O)[C@@H]21
→ -21, 2
CCCNC(=O)N1[C@@H]2CN(C(=O)NC(C)C)c3ccccc3[C@@H]2[C@@H]1CO
→ 20, 24
Cc1cccc(S(=O)(=O)N[C@@H]2CC[C@@H](CCNC(=O)c3cnccn3)O[C@H]2CO)c1
→ 0, 9
CC(=O)N(C)C[C@@H]1Oc2cc(C#Cc3cccc(F)c3)ccc2S(=O)(=O)N([C@H](C)CO)C[C@@H]1C
→ -15, -18

Later entries
The line under a structure holds: Vaccinia inh, Vaccinia inh Venus
O=C(N[C@@H]1CC[C@H](CCNC(=O)c2cnccn2)O[C@H]1CO)c1ccc2c(c1)OCO2
→ 14, 14
O=C(C[C@H]1C=C[C@H](NC(=O)Cc2cccnc2)[C@@H](CO)O1)Nc1ccc(-c2ccccc2)cc1
→ -3, -9
COCC(=O)N(C)C[C@@H]1Oc2ncc(-c3ccccc3F)cc2C(=O)N([C@H](C)CO)C[C@@H]1C
→ 13, 10
Cc1noc(C)c1S(=O)(=O)N(C)C[C@@H]1OCCCC[C@H](C)Oc2ccc(NC(=O)Cc3ccccc3)cc2C(=O)N([C@H](C)CO)C[C@@H]1C
→ -31, -25
CN(C)C(=O)c1ccc(-c2ccc3c(c2)[C@H]2[C@H](CCN2C(=O)c2ccccc2)[C@@H](CO)N3)cc1
→ 17, 7
C[C@@H]1CCCCO[C@H](CN(C)C(=O)Nc2ccc3c(c2)OCO3)[C@@H](C)CN([C@@H](C)CO)C(=O)c2cc(NC(=O)C3CCCCC3)ccc2O1
→ ?, /
C[C@@H]1CN([C@H](C)CO)S(=O)(=O)c2ccc(C#C[C@@H](C)O)cc2O[C@H]1CN(C)CC1CCOCC1
→ 8, 8
COCC#Cc1cnc2c(c1)C(=O)N([C@@H](C)CO)C[C@H](C)[C@H](CN(C)C(=O)Nc1cc(F)ccc1F)O2
→ 1, 1
COc1ccc(S(=O)(=O)N2C[C@@H](O)COC[C@H]3O[C@H](CC(=O)N[C@@H]4CCN(Cc5ccccc5)C4)CC[C@@H]32)cc1
→ -9, 2
C[C@H]1CN([C@@H](C)CO)C(=O)c2cc(N(C)C)ccc2O[C@H]1CN(C)Cc1ccc(C(F)(F)F)cc1
→ -3, -5
COc1ccccc1-c1ccc2n(c1=O)C[C@@H]1[C@@H](CO)[C@H](C(=O)N[C@H](C)c3ccccc3)[C@H]2N1C
→ 2, 0
CC(C)NC(=O)N1[C@H](CNC(=O)CN(C)C)[C@H](c2ccccc2)[C@@H]1CO
→ 11, 4
O=C(C[C@H]1C=C[C@@H](NS(=O)(=O)c2ccc(F)cc2)[C@H](CO)O1)NCCc1ccncc1
→ 9, 17
CNC[C@@H]1Oc2c(NC(=O)Nc3ccc(F)cc3)cccc2C(=O)N([C@@H](C)CO)C[C@@H]1C
→ 2, -1
Cc1ccccc1S(=O)(=O)N1[C@@H](C#N)[C@@H](c2ccc(-c3ccccc3)cc2)[C@@H]1CO
→ -30, -16
C[C@H]1CN([C@@H](C)CO)C(=O)c2c(c3ccccc3n2C)-c2ccccc2CO[C@H]1CN(C)C(=O)Nc1cccc(Cl)c1Cl
→ ?, /

An excerpt; count on the stated rates, not on these rows.
